# HNF4A DNA FP – change in binding of human HNF4 alpha to DNA. P41235. HNF4a-FITC DNA binding, fluorescence polarization, 1 h. activity change, % at 10 µM. 0.3% of 360,000 active; in the data active = activity change above about 30%, passing the limit was not always enough;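 note: controls were the assay level and a saturating level of protein; the project sought stronger binding though the title names inhibitors; some compounds called inactive have numbers as strong as hits; positive values seem to mean higher polarization but the record does not say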
# MLL AF4-AF9 inh – inhibitors of human MLL-AF4/AF9 interaction; P42568; inhibition, % at 10 µM; 0.47% of 350,000 active; AlphaScreen, biotin-AF4 peptide binding to FLAG-AF9;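 active = every replicate reaching a set inhibition limit, whatever the replicate mean, cut at about 25% in these data; inconclusive = mean inhibition reaches that limit but some replicates miss it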;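 note: 0% = plate neutral control median and 100% = total signal loss; the record names both 10 and 1 µM as test concentration; the first replicate is given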
# Target sequence (P42568 whole entry, looked up): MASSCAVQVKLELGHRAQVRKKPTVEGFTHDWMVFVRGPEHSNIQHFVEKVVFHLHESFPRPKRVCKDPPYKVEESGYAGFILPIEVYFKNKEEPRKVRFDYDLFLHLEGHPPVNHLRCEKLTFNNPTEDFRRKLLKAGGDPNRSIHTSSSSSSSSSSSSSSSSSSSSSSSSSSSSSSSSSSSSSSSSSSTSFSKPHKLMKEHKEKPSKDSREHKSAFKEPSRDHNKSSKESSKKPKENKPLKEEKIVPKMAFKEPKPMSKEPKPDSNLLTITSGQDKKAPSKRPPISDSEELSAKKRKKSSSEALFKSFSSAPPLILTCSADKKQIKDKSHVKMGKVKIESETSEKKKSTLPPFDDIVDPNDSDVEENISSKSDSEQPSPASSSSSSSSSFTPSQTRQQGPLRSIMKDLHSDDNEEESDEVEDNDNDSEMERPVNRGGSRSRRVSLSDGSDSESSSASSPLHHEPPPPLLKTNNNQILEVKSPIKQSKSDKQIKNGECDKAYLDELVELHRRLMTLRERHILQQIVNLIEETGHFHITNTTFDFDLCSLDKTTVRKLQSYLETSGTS
# UCH37 DUB inh – inhibitors of human deubiquitinating enzyme UCH37; Q9Y5K5; purified proteasome/UCH37, Ub-AMC cleavage fluorescence; inhibition, % (test concentration not listed); 0.33% of 330,000 active; AID 588478;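 active = mean of two replicates above 20%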;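 note: 0% = compound-free wells with enzyme and 100% = wells lacking proteasome; stock transfer was 100 nL into about 20 µL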
# Target sequence (Q9Y5K5 whole entry, looked up): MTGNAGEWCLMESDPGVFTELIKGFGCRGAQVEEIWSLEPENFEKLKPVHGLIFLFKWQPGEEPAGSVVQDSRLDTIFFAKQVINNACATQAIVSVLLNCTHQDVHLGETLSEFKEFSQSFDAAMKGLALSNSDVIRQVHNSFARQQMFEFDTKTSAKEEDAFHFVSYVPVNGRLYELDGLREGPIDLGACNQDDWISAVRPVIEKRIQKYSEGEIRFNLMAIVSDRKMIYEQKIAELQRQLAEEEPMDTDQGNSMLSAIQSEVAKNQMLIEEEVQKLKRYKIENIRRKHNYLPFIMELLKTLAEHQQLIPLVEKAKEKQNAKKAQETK
#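 Reagent: Ub-AMC substrate; assay system: Proteasome-associated human UCH37 deubiquitinase; controls: no-proteasome and no-compound wells; read-out: % inhibition of Ub-AMC cleavage fluorescence; timing: 30 min preincubation with enzyme, 25 min cleavage at room temperature; signal: AMC fluorescence from Ub-AMC cleavage, excitation 355 nm, emission 460 nm; buffer or medium: Tris-HCl pH 7.4 plus ovalbumin, ATP-MgCl2, DTT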
# RanGTP-Imp inh – disruptors of Ran-importin-beta complex formation – biochemical, FRET, CFP-Ran, YFP-importin-beta, homogeneous, primary screen. 1.1% of 300,000 active. AID 2216. cell-free CFP-Ran/YFP-importin-beta FRET ratio. inhibition, % (test concentration not listed);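 active = most replicates above 15%; inconclusive = exactly half above 15%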;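 note: 0% = DMSO wells and 100% = Ran loaded with GDP instead of GTP; wells of about 40 µL received 100 nL stock; the first replicate is given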
# Vif TR-FRET – inhibitors of Vif binding to APOBEC3G peptide, primary screen, biochemical, TR-FRET, GST-Vif 1-94, biotin-A3G peptide, dose response retest (AID 1117319) | inhibition, %; hits with a dose series show IC50 in µM | 0.57% of 260,000 active | TR-FRET GST-Vif / biotin-A3G peptide binding; higher % means a stronger effect; test concentration not given here; strong numbers were not always called active;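 active = above the screen mean plus three standard deviations and confirmed in dose response; inconclusive = results disagree or hit not tested in dose response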;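 note: Vif residues 1-94 fused to GST binding biotinylated APOBEC3G peptide 110-148; 0% = full assay without inhibitor and 100% = GST in place of GST-Vif; retest series ran down from 100 µM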
# FGF22 binding – shifts melting point of recombinant human FGF22; Q9HCT0; recombinant FGF22 thermal shift, SYPRO orange fluorescence; percent of sucrose octasulfate shift, DMSO zero; calls only at 9.99 µM; 1.5% of 340,000 active; AID 651658;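 active = melting point raised past a set limit in the mean and every replicate; inconclusive = no clear call; three in four hits are not shown here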
# Target sequence (Q9HCT0 whole entry, looked up): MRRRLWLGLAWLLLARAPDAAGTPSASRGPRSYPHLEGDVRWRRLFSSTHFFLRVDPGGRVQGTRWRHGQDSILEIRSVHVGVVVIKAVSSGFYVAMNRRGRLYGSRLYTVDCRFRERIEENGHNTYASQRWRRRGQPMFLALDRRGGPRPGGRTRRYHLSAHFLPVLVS
# E coli growth – E. coli growth inhibition; Escherichia coli growth, OD600, 23 h; active compounds read low; OD600 absorbance (test concentration not listed); 0.21% of 330,000 active; AID 1053175;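 active = OD600 absorbance below the run mean of sample wells minus 3.6 SD, in any replicate, cut at about 0.56 in these data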;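 note: stock transfer was 300 nL into about 60 µL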
# * hit, by the source's call; i = inactive; ? = inconclusive; / = not tested or not shown; & = joins results of further samples.
SMILES	HNF4A DNA FP	MLL AF4-AF9 inh	UCH37 DUB inh	RanGTP-Imp inh	Vif TR-FRET	FGF22 binding	E coli growth
CC(=O)Nc1nnc(SCc2ccc(C(=O)Nc3ccccc3F)cc2)s1	0.3	-0.2	6.0	-3.9	8%	i	0.73
N/C(=N\OC(=O)c1ccc(F)cc1)c1cccc([N+](=O)[O-])c1	-3.3	-3.3	/	1.6	/	i	/
COCCCNC(=S)N(Cc1ccccc1)Cc1ccccc1	1.7	/	8.0	4.7	/	/	0.72
COc1ccc(Nc2nc(N)nc(COc3ccc(OC)cc3)n2)cc1	-1.9	/	2.1	-2.5	1%	/	0.7
COc1ccc(CCC(=O)NNC(=O)c2ccc(OC)cc2)cc1	-4.4	-0.9	2.5	2.0	/	i	0.69
O=C(CC(=O)Nc1ccc(Br)cc1)Nc1ccc(Br)cc1	0.4	-0.4	0.8	?	-7%	i	0.66
CC(=O)N1CCc2cc(S(=O)(=O)CCC(=O)N3CCN(c4ccccn4)CC3)ccc21	-5.1	/	4.2	1.5	-5%	/	0.73
O=C(COC(=O)c1ccco1)NC(c1ccccc1)c1ccccc1	0.5	-0.6	-0.2	3.1	17%	i	0.72
CC(C(=O)Nc1ccccc1C(F)(F)F)N1CCN(C)CC1 (stereo unspecified)	0.4	-3.0	-0.4	2.5	/	i	0.69
CNC(=O)c1cc2c(s1)-c1ccccc1CC2	-5.2	3.8	i	-2.5	/	/	0.62
CCOC(=O)Cn1nc(-c2ccc(F)cc2)oc1=O	-1.1	/	1.1	3.5	0%	/	/
O=C(Nn1c(C2CCC2)nc2ccccc2c1=O)C1CCC1	-5.8	/	5.8	-2.3	16%	/	0.7
CC1(C)Cc2c(cnn2-c2ccc(F)cc2)C(NC(=O)CN2CCCCC2=O)C1 (stereo unspecified)	-6.6	-0.1	2.3	2.5	/	i	0.71
CCC(=O)N1CCc2cc(Br)cc(S(=O)(=O)C3(C(=O)OC)CC3)c21	5.5	/	-0.1	-1.9	9%&6%	/	0.75
COc1ccc2c(c1)C1NC(=S)N[C@@](C)(O2)C1C(=O)Nc1ccccc1 (stereo partly specified)	-2.2	/	3.1	1.4	?	/	0.72
COc1ccc(CCNC(=O)C(=O)NCC2OCCN2S(=O)(=O)c2ccc(F)cc2)cc1OC (stereo unspecified)	4.8	5.7	2.7	2.2	/	i	0.69
COc1ccc(Cl)cc1NC(=O)CN(C)C(=O)Cc1ccsc1	1.4	-0.2	2.2	-2.1	1%	i	0.7
Cc1ccc(Nc2cc(C)nn2-c2nc(C)cc(=O)[nH]2)cc1	-1.3	/	0.9	2.6	13%	/	0.49*
CCCn1c(N)c(C(=O)CSc2nnc(-c3ccoc3C)n2C)c(=O)n(C)c1=O	2.8	-1.9	0.0	/	/	i	0.66
N#CC[C@H](Cc1ccccc1)N1CCN(CCc2ccccc2)CCC1=O	4.1	4.3	-0.9	-0.1	/	i	/
Cn1nc(C(=O)OCC(=O)Nc2cccc(S(=O)(=O)N3CCCC3)c2)c2ccccc2c1=O	-1.5	8.8	0.8	5.0	/	i	0.67
O=C(Nc1ccc(F)cc1)c1ccc(-n2cncn2)c([N+](=O)[O-])c1	6.2	-0.4	0.7	-1.6	/	i	0.67
COc1ccccc1CSc1ncc(-c2ccc([N+](=O)[O-])cc2)[nH]1	2.0	15	1.6	-6.0	/	i	0.65
O=C(Nc1nnc(COc2ccc(F)cc2)s1)c1cccs1	0.7	/	0.2	-5.4	-5%	/	0.79
Cc1ccc(C2=CC(c3cccs3)n3nnnc3N2)cc1 (stereo unspecified)	-3.4	/	-0.3	5.0	?	/	0.74
O=C(Cc1cccs1)Nc1nnc(Cc2ccccc2)s1	-12	/	8.5	2.9	?	/	0.74
CC(=O)Nc1ccc(C(=O)Nc2ccc3c(c2)OCO3)cc1	0.9	/	6.1	4.4	9%	/	0.72
CNc1cncc(-c2cccc(O)c2)n1	1.6	3.5	/	/	/	i	/
O=C1NC(=S)N/C1=C\C=C\c1ccccc1	-3.3	-1.8	2.6	-3.2	-7%	i	0.63
Cc1[nH]n(-c2ccccc2)c(=O)c1N=Nc1cccc(Cl)c1	-1.2	1.4	5.8	4.5	/	i	0.7
COc1ccccc1CN1C(=S)SC(C)(C)C1NO (stereo unspecified)	-1.7	/	-0.8	7.0	-9%	/	0.69
Cc1ccccc1C(=O)c1c[nH]c(C(=O)NCCc2ccccn2)c1	0.3	-0.8	2.5	0.6	6%	i	0.73

# In another format: entries from further up.
O=C1NC(=S)N/C1=C\C=C\c1ccccc1
- HNF4A DNA FP: -3.3
- MLL AF4-AF9 inh: -1.8
- UCH37 DUB inh: 2.6
- RanGTP-Imp inh: -3.2
- Vif TR-FRET: -7%
- FGF22 binding: i
- E coli growth: 0.63

COc1ccccc1CN1C(=S)SC(C)(C)C1NO (stereo unspecified)
- HNF4A DNA FP: -1.7
- MLL AF4-AF9 inh: /
- UCH37 DUB inh: -0.8
- RanGTP-Imp inh: 7.0
- Vif TR-FRET: -9%
- FGF22 binding: /
- E coli growth: 0.69

Cc1ccc(C2=CC(c3cccs3)n3nnnc3N2)cc1 (stereo unspecified)
- HNF4A DNA FP: -3.4
- MLL AF4-AF9 inh: /
- UCH37 DUB inh: -0.3
- RanGTP-Imp inh: 5.0
- Vif TR-FRET: ?
- FGF22 binding: /
- E coli growth: 0.74

# Going on with the list:
SMILES	HNF4A DNA FP	MLL AF4-AF9 inh	UCH37 DUB inh	RanGTP-Imp inh	Vif TR-FRET	FGF22 binding	E coli growth
CCc1c(C)nc(SCC(=O)N2CCN(c3ccccc3OC)CC2)[nH]c1=O	-3.4	-4.1	1.7	1.8	-2%	i	0.67
Cc1ccc(-n2c(=O)c(C#N)cc3c(=O)n4cccc(C)c4nc32)cc1	1.3	/	-290	93*	-10%	/	0.76
Cc1ccc(C(=O)NCCCNCCCNC(=O)c2ccc(C)nc2)cn1	-0.1	/	1.2	0.9	?	/	0.7
Brc1ccc(OCCOCCN2CCOCC2)cc1	-5.7	-0.3	0.8	?	-2%	i	0.62
COc1ccc(CC(=O)Nc2ccc3nc(C)sc3c2)cc1OC	-2.4	-2.3	4.4	1.8	/	i	0.7
Cc1n[nH]c(=O)nc1NCc1ccc(Cl)cc1	-1.3	/	1.6	-0.1	-4%	/	0.73
O=C(Cc1ccc(Br)cc1)Nc1ccc(Cl)cc1	-5.3	0.5	4.4	-4.4	-2%	/	0.7
CCC(=O)NCCNc1nc2cc(C)c(C)cc2cc1C#N	-2.0	/	-176	34*	-5%	/	0.73
O=C(NCCc1ccc(Cl)cc1)C1CCN(S(=O)(=O)N2CCCCC2)CC1	2.9	-16	-2.1	-1.6	10%	i	0.7
Cc1ccc(NC(=O)c2cnccn2)cc1	3.0	-2.4	1.0	2.7	0%	i	0.57
C=C(C)CNC(=S)N1CCNC(=O)C1CC(=O)OC (stereo unspecified)	-1.6	/	-1.8	-0.6	?	/	0.73
COCCCn1cc(CN2CC(N3CCN(CCN(C)C)CC3)CS2(=O)=O)nn1 (stereo unspecified)	-0.8	-7.6	/	/	/	i	/
Cc1c(C(=O)O)cccc1-n1c(C)cc(/C=C(/C#N)C(=O)NCc2ccccc2)c1C	2.3	-0.9	5.3	-1.2	-5%	/	0.66
CCOC(=O)N1CCC(NS(=O)(=O)c2ccc(C)c(Cl)c2)CC1	1.3	1.7	2.6	5.4	-8%	i	0.64
CCOC(=O)c1c(NC(=O)COc2ccc3ccc(=O)oc3c2)sc(C(=O)N(C)C)c1C	4.2	-1.4	-41	5.6	/	i	0.69
CC1Oc2cc3oc4c(O)c5c(cc4c(=O)c3c(O)c2C1(C)C)C=CC(C)(C)O5 (stereo unspecified)	/	/	4.4	1.0	/	/	0.79
Cc1ccc(Cl)cc1N1CCN(C(=O)CNC(=O)c2ccc(Br)o2)CC1	-1.1	1.4	5.9	/	-1%	i	0.71
CC(C)(C)OC(=O)C[C@H]1C/C=C\C[C@@H](CC(=O)NCCO)C(=O)NC[C@H](c2ccccc2)OC1=O	2.1	-2.9	1.7	/	5%	i	0.72
COc1cc(C(=O)NCc2ccco2)cc(OC)c1OC	19	/	2.4	5.5	-3%	/	0.72
C/C(CCC(C)C)=N\NC(=O)COc1ccccc1-c1ccccc1	-3.0	-0.7	/	/	7%	i	/
Cc1cccc(N2CCN(C(=O)c3nn(C)c4c3CS(=O)(=O)c3ccccc3-4)CC2)c1C	2.4	-1.1	2.1	0.4	/	i	0.71
Cc1nc(SCc2nc3ccc(C(F)(F)F)cc3[nH]2)c2oc3ccccc3c2n1	1.2	1.9	2.5	/	/	i	0.7
CCOc1cc(Br)c(C(C)NC(=O)c2cccnc2)cc1OCC (stereo unspecified)	1.0	-1.1	3.1	-4.4	/	i	0.64
O=C(COC(=O)CN=C1NS(=O)(=O)c2ccccc21)Nc1ccccc1OC(F)F	-3.5	1.3	0.0	3.4	?	i	0.69
Cc1ccc2nc(-c3ccc(-c4ccccn4)s3)cn2c1	1.3	0.1	i	-5.1	2%	i	0.66
CCOc1ccccc1NS(=O)(=O)c1ccc2c(c1)NC(=O)CCS2	-1.8	-0.5	4.8	-3.9	/	i	0.7
Cc1c(C(=O)O)oc2ccc(S(=O)(=O)N3CCCC3)cc12	-4.7	-0.8	1.6	-2.0	9%	i	0.7
CCOc1ccc2c(c1)C(=O)C(=O)N2CC1COc2ccccc2O1 (stereo unspecified)	2.2	-3.7	3.5	7.0	-6%	i	0.66
CCCCNCC(=O)Nc1sc(C)c(C)c1C(=O)OCC	-3.5	/	4.7	?	11%	/	0.65
CCCCN1C(=O)/C(=c2\sc3nc(=O)c(-c4ccccc4)nn3c2=O)c2ccccc21	-0.8	/	/	-3.1	6%	/	/
O=C(NN1C(=O)/C(=C/C=C/c2ccco2)SC1=S)c1ccncc1	-46	-1.3	12	-4.0	2.4µM*	i	0.7
CN(C)c1cccc(O)c1	2.2	/	0.8	/	/	i	0.67
O=S(=O)(c1cccc(NC(=S)N2CCN(c3ccc(F)cc3)CC2)c1)C(F)F	0.8	-3.1	-0.2	-3.5	/	i	0.7
O=C1c2c(-c3ccc(Br)cc3)noc2CCN1Cc1cn(Cc2cccnc2)nn1	1.0	1.3	/	/	/	i	/
COc1ccc(-n2c(/C=C3\C(=O)N(C)c4ccccc43)nc3ccccc3c2=O)cc1	4.9	/	-1.6	-3.3	?	i	0.69
CCOC(=O)Nc1ccc([N+](=O)[O-])cc1OC	5.2	/	3.6	-0.7	/	/	0.73
c1ccc(CN2CCN(c3cnc4ccccc4n3)CC2)cc1	1.1	0.2	-18	1.9	/	i	0.66
O=C(Nc1ccccn1)c1ccc(C(=O)c2ccccc2)cc1	3.8	3.0	-3.0	-1.7	8%	i	0.59
Cn1nc(C(F)(F)F)c(CN2CC(C)(C)C2=O)c1N1CCOCC1	1.0	-0.5	1.2	-0.9	1%	/	0.7
Cc1ccc(S(=O)(=O)NCC(=O)N(CC(=O)NCC2CCCO2)Cc2ccccc2)cc1 (stereo unspecified)	3.7	/	3.3	1.4	1%	/	0.77
O=C1CC(=O)Nc2cc(S(=O)(=O)N3CCN(c4ccc([N+](=O)[O-])cc4)CC3)ccc2N1	-4.2	-1.9	10	-0.3	/	i	0.71
Cc1cc(C)nc(-n2nc(C)cc2NC(=O)c2cccc(S(=O)(=O)N(C)C)c2)n1	/	/	4.8	4.1	/	/	0.69
Cc1ccc2[nH]c(=O)c(CN(CCCN(C)C)C(=O)Nc3ccc(Cl)cc3)cc2c1	0.8	/	2.9	-3.1	-2%	/	0.65

# From PubChem BioAssay

# These rows are one share of the data; count on the stated rates, not on these rows.
